HCMV NEC inh: disrupts HCMV UL50-UL53 complex binding | HTRF UL50-UL53 interaction, normalized percent inhibition | inhibition, % (test concentration not listed) | actives 0.15% (n = 190,000) | AID 1918969;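 active = both replicates at 50% or more, plus weaker picks with an unusually low signal ratio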;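 note: stock transfer was 100 nL into about 20 µL; 0% = negative control wells and 100% = wells with untagged competitor protein; inactives centre near -12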
GIV-Gai inh: GIV-Galpha-i interaction inhibition; P08753; Galpha-i3/FITC-GIV peptide fluorescence polarization, 90 min; hits give low values; scaled: aluminum fluoride 0%, vehicle 100%; percent of control (FP), % (test concentration not listed); actives 0.42% (n = 210,000); AID 1224905;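 active = replicate mean at 85% of control or lower, very high polarization wells dropped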;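 note: wells of about 15 µL received 100 nL stock; the first replicate is given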
Target sequence (P08753 whole entry, looked up): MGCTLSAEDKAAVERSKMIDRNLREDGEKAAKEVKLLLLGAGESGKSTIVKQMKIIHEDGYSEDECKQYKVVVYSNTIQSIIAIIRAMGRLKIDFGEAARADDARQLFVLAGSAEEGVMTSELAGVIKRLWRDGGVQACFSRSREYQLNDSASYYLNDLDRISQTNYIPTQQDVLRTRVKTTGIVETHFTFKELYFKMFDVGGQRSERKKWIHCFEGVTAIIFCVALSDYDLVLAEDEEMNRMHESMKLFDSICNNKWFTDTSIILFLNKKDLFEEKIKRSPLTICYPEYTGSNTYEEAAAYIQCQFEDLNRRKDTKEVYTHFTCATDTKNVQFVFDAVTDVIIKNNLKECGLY
Sa growth 42C: S. aureus growth inhibition. actives 0.53% (n = 170,000). S. aureus RN4220 growth, OD600, 20 h, 42 °C; hits give low values. relative growth, % (concentration not given with the values);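 active = growth at 42 °C up to 50% and 20 or more points under that at 30 °C, or under 10% at both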;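 note: 300 nL library stock went into each well; scaled to the means of positive and negative controls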
Sa growth 42C second temp: also measured in Sa growth 42C; calls as there; relative growth, %; measured here: growth at 30 °C;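 optical density after 20 h as mean of two plates; 100% = untreated growth and lower means inhibition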
* marks the source's active call; other numbers are inactive results; x = not tested or not shown; & = joins results of further samples. Rows are unselected, and some 0.83% of all compounds hit somewhere here.

Compound	HCMV NEC inh	GIV-Gai inh	Sa growth 42C	Sa growth 42C second temp
C=CCNC(=O)C(C)Sc1ccc(C)cc1 (configuration not stated)	1	104	95	98
O=C(CC1(O)C(=O)N(Cc2ccc(Cl)cc2)c2ccccc21)c1ccc2c3c(cccc13)CC2 (configuration not stated)	-11	106	x	x
COc1ccc(CN=Cc2ccnc(SCc3ccc(Cl)cc3Cl)n2)cc1	-22	107	102	91
CCNc1sc(S(C)(=O)=O)nc1S(=O)(=O)c1ccc(Cl)cc1	x	105	85	71
C=CCSc1nc(C)cc(C(=O)OCC)c1C#N	-11	97	104	81
Cc1ccccc1Cn1cc(NC(=O)c2cc3ccccc3oc2=O)cn1	-20	99	93	89
CCCCN(CC)C(=O)Cn1c(=O)n(Cc2ccccc2Cl)c(=O)c2cc(OC)c(OC)cc21	x	111	86	89
COc1ccc(OC)c(NC(=O)c2cc3ccccn3n2)c1	-4	100	111	92
Cc1cnc(C(=O)N(CC(C)C)c2c(N)n(CC(C)C)c(=O)[nH]c2=O)cn1	-24	x	96	84
CCOC(=O)c1csc(CS(=O)(=O)c2ccc(Cl)cc2)n1	3	107	98	105
COc1ccc(N2CC(C(=O)Nc3ccc(-c4nc(C)no4)cc3)CC2=O)cc1 (configuration not stated)	-15	103	x	x
Nc1nc(N)c(S(=O)(=O)c2ccccc2)c(Nc2ccc(Br)cc2)n1	-1	105	100	96
COc1ccc2oc(=O)c(C(=O)OC3CCCCC3)cc2c1	-55	104	100	90
Cc1cc(C)n2nc(CN(C(=O)C(C)(C)C)c3ccc(F)cc3)nc2n1	10	101	x	x
CCc1ccc(-n2c(=O)c3c(C)c(C(=O)N(C)C)sc3n(CC(=O)Nc3cc(Cl)ccc3C)c2=O)cc1	x	102	110	101
NC(=O)c1cc2ccccc2o/c1=N\NC(=O)c1ccccc1O	-28	102	96	83
N/C(COc1ccc2nonc2c1)=N\OC(=O)c1ccc(Cl)cc1	2	107	103	100
Cc1ccc(Cl)cc1N1CCN(C(=O)c2ccc(CS(=O)c3ccccc3)o2)CC1 (configuration not stated)	x	101	88	50
CCc1cccc2c(C(=O)Cn3nc(C)c(C)c(C#N)c3=O)c[nH]c12	-45	x	97	96
Cn1c(=N)n(CC(O)c2ccco2)c2ccccc21 (configuration not stated)	-18	110	92	85
O=C1C=CC(=O)N1c1cccc2ccccc12	-36	x	91	83
CCn1cc(C(=O)NCCc2ccc(C)cc2)c(=O)c2cc(S(=O)(=O)N3CCCCC3)ccc21	18	99	104	105
CCOc1cccc(CNC(=O)c2ccc(N3CCCC3)c(NC(=O)Nc3ccccc3CC)c2)c1	x	100	82	88
COC(=O)C(=NNc1cccc(Cl)c1)C(=O)OC	-83	105	104	94
Cc1ccc(NC(=O)N2CCSc3ncccc32)c(Cl)c1	-5	99	x	x
O=C(COC(=O)c1nc(-c2ccccc2)n(-c2ccccc2)n1)NCC1CCCO1 (configuration not stated)	2	x	94	97
O=c1oc2ccccc2c2c1ncn2CCCN1CCOCC1	4	99	98	93
CCOc1ccc(CCNC(=O)Cn2nc(CC)n3c(cc4sc(CC)cc43)c2=O)cc1OCC	-12	99	92	83
CCNS(=O)(=O)c1cc(-c2nnc(Nc3ccc(F)cc3)c3ccccc23)ccc1C	x	99	101	94
c1ccc(CCSc2ncnc3nc[nH]c23)cc1	-10	96	68	70

An excerpt from above in order of heavy-atom count, ascending.
Compound	HCMV NEC inh	GIV-Gai inh	Sa growth 42C	Sa growth 42C second temp
CCOC(=O)c1csc(CS(=O)(=O)c2ccc(Cl)cc2)n1	3	107	98	105
Nc1nc(N)c(S(=O)(=O)c2ccccc2)c(Nc2ccc(Br)cc2)n1	-1	105	100	96
CCc1ccc(-n2c(=O)c3c(C)c(C(=O)N(C)C)sc3n(CC(=O)Nc3cc(Cl)ccc3C)c2=O)cc1	x	102	110	101

More structures follow:
Compound	HCMV NEC inh	GIV-Gai inh	Sa growth 42C	Sa growth 42C second temp
CC(C)(NCc1ccccc1Cl)C(=O)O	-11	96	86	86
COc1ccc2oc(C)c(C(=O)Nc3ccc(N(C)C(C)=O)cc3)c2c1	-2	104	x	x
Cc1ccc(C)c(N2CCN(C(=O)c3cc(S(=O)(=O)N4CCCC4)c[nH]3)CC2)c1	x	105	94	104
Cc1ccc(S(=O)(=O)c2c(Nc3cccc(Cl)c3)sc(C(=O)c3ccc4c(c3)OCO4)c2N)cc1	x	103	107	102
COc1ccc2oc(C)c(C(O)c3cc4ccccc4o3)c2c1 (configuration not stated)	-8	x	89	84
CCOC(=O)c1cc(Cn2cnc3nc4c(cc3c2=O)CCCC4)on1	-11	126	x	x
Cc1ccc(C)c(SCC(=O)OCC(=O)c2ccco2)c1	-20	x	86	81
COc1ccc2c(COC(=O)c3cncc(Br)c3)cc(=O)oc2c1	-15	x	82	83
COc1ccc(S(=O)(=O)N2CCc3cc4cc(C)ccc4nc32)cc1C	-8	103	x	x
Cc1cc(-c2nc(-c3ccnn3S(=O)(=O)c3cccc(C(F)(F)F)c3)cs2)no1	-38	100	104	96
Cc1cc(N2C(=O)NC(=O)/C(=C/c3ccccc3OCC#N)C2=O)ccc1Br	-22	104	x	x
O=C(NCCN1CCOCC1)c1ccc2c(=O)n3c(nc2c1)CCCCC3	-6	104	93	89
Clc1cccc(NCc2ccco2)c1	-41	106	87	85
Cc1cc(-c2ccc(C)c(S(=O)(=O)N3CCCC(C)C3)c2)on1 (configuration not stated)	x	106	92	81
CC(C)C(NC(=O)Cc1ccccc1)C(=O)N1CCN(S(=O)(=O)c2cccc(Cl)c2)CC1 (configuration not stated)	-10	x	102	89
COc1ccc(CNc2oc(C)nc2C#N)cc1	-9	99	97	88
COc1ccc(N(C(C)C(=O)Nc2ccc(-c3nc4ccc(C)cc4s3)cc2)S(C)(=O)=O)cc1 (configuration not stated)	-9	106	x	x
O=C(Nc1cc(NC(=O)c2ccccc2Cl)ccc1Cl)c1ccccc1	-46	101	94	88
CCCc1ccc(-c2ccc(/C=C/C(=O)O)cc2)nc1	-139	101	77	103
CC(CC(=O)Nc1nc2ccccc2[nH]1)c1ccccc1 (configuration not stated)	-13	x	122	91
CN1C(=O)/C(=C2/Sc3ccccc3N2C)SC1=Nc1ccccc1	-15	105	x	x
CC(C)CC(NC(=O)CC12CC3CC(CC(C3)C1)C2)C(=O)N1CCOCC1 (configuration not stated)	3	111	102	94
Cc1oc(-c2ccccc2F)nc1CS(=O)(=O)CC(=O)N1CCCCCC1	5	112	103	97
CCC(=O)NCc1nc2ccccc2n1C(C)c1ccccc1 (configuration not stated)	5&-31	104&105	105	92
CCc1cccc(Nc2c3c(nc4ncnn24)CCC3)c1	-6	101	104	70
COc1ccc(NC(=O)C2CCN(c3nn4cc(-c5ccc(OC)cc5)nc4s3)CC2)cc1	0	101	101	93
O=C(Nc1nnc(C2CCCCC2)s1)c1ccc2c(c1)OCO2	-9	102	117	84
COc1ccc(-c2nc3c(s2)CN(C(=O)c2ccccc2Br)CC3)cc1	5	99	x	x
CC(NCCc1ccc(O)cc1)C(O)c1ccc(O)cc1 (configuration not stated)	-42	x	86	88
CC(C)c1ccc(C2C3=C(CC(c4cccs4)CC3=O)Nc3ncnn32)cc1 (configuration not stated)	-26	101	88	85
CCOC(=O)C1CCN(c2ncnc3c2c(-c2ccccc2)cn3-c2cccc(C)c2)CC1	x	107	98	87
COc1cc(C(=O)Oc2cc(C)cc(C)c2)cc(OC)c1OC	0	102	103	98
COc1ccc(-c2nnsc2N2C(=O)c3ccccc3C2=O)cc1	13	105	105	94
COC(=O)c1ccc(NC(=O)CC2C(=O)N(c3ccc(F)cc3)C(=O)N2Cc2ccc(OC)cc2)cc1 (configuration not stated)	x	106	112	92
CN(Cc1ccccc1)C(=O)COc1cccc2ccccc12	-8	x	97	84
COc1cccc(CNC(=O)c2cnc3c(-c4ccc(F)cc4)c(C)nn3c2C)c1	x	101	97	97
CC1=C(C(=O)Nc2ccccc2)C(c2ccc(C)cc2)N=C(Nc2nc3ccccc3o2)N1 (configuration not stated)	-10	108	96	100
O=C1CCC(=O)N1CNc1cccc(Cl)c1	x	100	104	78
Cc1[nH]c2ccccc2c1C(O)c1cccnc1 (configuration not stated)	x	101	92	74
CCCCN(C)CCNC(=O)c1cc(-c2cccnc2)nc2ccc(S(=O)(=O)N3CCC(C)CC3)cc12	x	104	115	90
Cn1c(COc2ccccc2)n[nH]c1=S	4	103&91	104&76	76&100
CCOc1ccc(CNC(=O)C2=Cc3cccc(OC)c3OC2)cc1	x	102	95	91
O=C(CSc1nnnn1C1CCCC1)c1ccc(NC(=O)c2ccccc2)cc1	-15	x	109	93
Cc1nnc(SCc2ccc(F)cc2Cl)c2cc3occc3n12	x	100	94	77
Cc1cc(C)nc(NS(=O)(=O)c2ccc(NC(=O)COc3ccc(C(C)(C)C)cc3)cc2)n1	-27	105	81	68
COC(=O)c1ccccc1NC(=O)c1ccc2c(c1)OCCCO2	-16	97	79	83
COC(=O)CSc1nccc(=O)[nH]1	-26	98	95	78
COc1ccc(-c2nc(OC)c3c4c(sc3n2)CCCC4)cc1	-24	88	x	x
CC(C)N(C)NC(=S)Nc1ccccc1	-34	102	107	91
O=C(Oc1cc2ccccc2cc1C(=O)O)c1cccc(Cl)c1	-6	107	123	88
COc1ccc(N2CCN(C(=O)c3ccc(NC(=O)C4=C(C)OCCS4)cc3)CC2)cc1	2	107	100	102
Cc1cn(C(=O)c2snnc2C)nc1-c1cccs1	-5	99	112	91
Cc1ccccc1NC(=O)C1CC2CSCN2C12C(=O)Nc1ccccc12 (configuration not stated)	-30	100	x	x
CC1(C)C(=O)N(CC(=O)N2CCOCC2)c2ccc(S(=O)(=O)N3CCCCC3)cc21	-20	103	x	x
O=C(c1ccc2c(c1)OCO2)N1CCCC1c1ccc(F)cc1 (configuration not stated)	-18	101	x	x
CN(C)c1ccc(C(CNC(=O)c2ccccc2Cl)N2CCCC2)cc1 (configuration not stated)	x	101	92	86
O=C(c1cccc(N2C(=O)CCS2(=O)=O)c1)N1CCN(Cc2ccc3c(c2)OCO3)CC1	-6	106	x	x
CC1CCCCN1CCCNC(=O)Cn1ncc2c([nH]c3ccccc32)c1=O (configuration not stated)	x	115	113	105
Fc1ccc(OCc2nnc3sc(-c4c[nH]c5ccccc45)nn23)cc1	4	101	x	x
NC(=O)c1c(NC(=O)COC(=O)C2CC(=O)N(Cc3ccco3)C2)sc2c1CCC2 (configuration not stated)	-35	x	110	74

Two successive entries already listed, for reference:
Compound	HCMV NEC inh	GIV-Gai inh	Sa growth 42C	Sa growth 42C second temp
C=CCNC(=O)C(C)Sc1ccc(C)cc1 (configuration not stated)	1	104	95	98
O=C(CC1(O)C(=O)N(Cc2ccc(Cl)cc2)c2ccccc21)c1ccc2c3c(cccc13)CC2 (configuration not stated)	-11	106	x	x

Following part:
Compound	HCMV NEC inh	GIV-Gai inh	Sa growth 42C	Sa growth 42C second temp
O=C(Nc1ccccc1)Nc1sccc1-c1nc2ccccc2s1	29	122	103	91
CC(C)CCNC(=O)Cn1c(-c2cccs2)cc2cc(F)ccc21	x	111	130	95
Cc1ccc2c(c1)-c1onc(C(=O)N(C)c3ccccc3)c1CO2	-20	101	94	87
O=C(Cn1c(=O)c(C(F)(F)F)nc2ccccc21)Nc1ccc(Cl)cc1	-20	104	x	x
Nc1c(-c2ccccc2)nc2sc(N3CCNCC3)nn12	-18	100	x	x
NCCOC(=O)Nc1nc2ccccc2[nH]1	-11	97	86	79
CC(C)(C)c1ccc(C(=O)N2CCC(C(=O)NC3CC3)CC2)cc1	19	105	88	81
C#CCSc1nnnn1-c1cccc(Cl)c1	-17	102	98	91
COc1cc(NC(=O)C(C)C)ccc1NC(=O)C(C)C	-4	105	102	93
CCCC(=O)NCC1(N(C)C)CCCCC1	-21	102	111	93
COc1ccc2[nH]c(C(=O)N3CCC(Cc4ccccc4)CC3)cc2c1	-17	103	95	94
COc1ccc(NC(=O)c2c(C)oc3ccc(O)c(CN4CCCC4)c23)cc1Cl	-15	101	102	84
Cc1cc(N2CCC3(CC2)OCCO3)n2ncnc2n1	-14	102	103	90
COc1cccc(CC2C(=O)Nc3ccccc32)c1 (configuration not stated)	-14	104	x	x
NC(=O)C1CCN(C(=O)CN2CCN(c3ccccn3)CC2)CC1	-1	99	103	93
O=C(c1cccs1)N1CCN(C(=O)C2CCCCC2)CC1	3	108	99	93
O=C(CCn1[nH]c(=O)ccc1=O)Nc1nc2ccccc2[nH]1	-22	x	85	94
Cc1ccc2nc(NC(=O)C(Cc3ccccc3)n3cccc3)sc2c1 (configuration not stated)	x	103	89	74
CC(C)NC(=O)NCc1ccc(C(=O)OCc2nnc(-c3ccccc3)o2)cc1	-18	x	103	70
CCOC(=O)c1ccc(NC2c3ncccc3C(=O)N2c2ccc(OC)cc2)cc1 (configuration not stated)	-12	102	x	x
CC1CC(C)CN(S(=O)(=O)c2ccc(Cl)cc2)C1 (configuration not stated)	5	x	88	122

Compound activity deposited in PubChem BioAssay by ICCB-Longwood Screening Facility, Harvard Medical School.
